Mtb H37Rv – M. tuberculosis H37Rv growth inhibitors, H37Rv strain (AID 1626); M. tuberculosis H37Rv growth inhibition; higher % means a stronger effect; inhibition, % at 10 µM; hits with a dose series show IC50 in µM; hit rate 0.95% among 220,000;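 active = confirmed in a dose series; inconclusive = inhibition above 80% but not taken into the dose series; inactive = below 80% or under 30% at every dose of the series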;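 also: bacteria incubated seven days before Alamar blue readout; 0% = bacteria only wells and 100% = bacteria with antibiotic wells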
YopH inh – blocks Yersinia enterocolitica YopH tyrosine phosphatase; fluorescence Ex485/Em525; inhibition, %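 (about 10 µM by stock and volumes)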; hit rate 0.16% among 140,000; AID 898;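 active = inhibition of 50% or more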;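 also: controls were vehicle for no effect and minimum signal wells for full effect; inactives centre near -20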
Arbovirus anti – blocks arbovirus infection; arbovirus infection cell-based antiviral screen; inhibition, % at 10 µM; hit rate 0.37% among 200,000;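 active = inhibition from about 30%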;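 also: bluetongue infection of BSR cells; cell survival read as ATP light after 72 h; 0% = infected wells without compound and 100% = uninfected wells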
Mtb bLac sens – beta-lactam sensitization of Mtb H37Rv; AID 434955; hit rate 0.27% among 330,000; M. tuberculosis H37Rv growth with meropenem, percent inhibition; hits of this screen are not shown here; inhibition, % at 25 µM;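 active = about 74% or more and at least 40 points above the plate without the antibiotic, then above 30% in a dose series; inconclusive = first-round hits that could not be retested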;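 also: growth measured after seven days incubation then overnight dye step; 0% = bacteria only wells and 100% = bacteria with antibiotic; twin plates without the antibiotic show which effects depend on it; some results filed as inactive read as strong as hits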
RecA intein inh – blocks M. tuberculosis RecA intein splicing. P9WHJ3. cell-free RecA intein splicing, fluorescence. inhibition, %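 (about 9 µM by stock and volumes)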. hit rate 0.75% among 290,000. AID 2221; in the data active = inhibition above about 30%; inconclusive = no clear call, values can overlap the other calls;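 also: 0% = vehicle wells and 100% = reference inhibitor control wells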
Target sequence (P9WHJ3 whole entry, looked up): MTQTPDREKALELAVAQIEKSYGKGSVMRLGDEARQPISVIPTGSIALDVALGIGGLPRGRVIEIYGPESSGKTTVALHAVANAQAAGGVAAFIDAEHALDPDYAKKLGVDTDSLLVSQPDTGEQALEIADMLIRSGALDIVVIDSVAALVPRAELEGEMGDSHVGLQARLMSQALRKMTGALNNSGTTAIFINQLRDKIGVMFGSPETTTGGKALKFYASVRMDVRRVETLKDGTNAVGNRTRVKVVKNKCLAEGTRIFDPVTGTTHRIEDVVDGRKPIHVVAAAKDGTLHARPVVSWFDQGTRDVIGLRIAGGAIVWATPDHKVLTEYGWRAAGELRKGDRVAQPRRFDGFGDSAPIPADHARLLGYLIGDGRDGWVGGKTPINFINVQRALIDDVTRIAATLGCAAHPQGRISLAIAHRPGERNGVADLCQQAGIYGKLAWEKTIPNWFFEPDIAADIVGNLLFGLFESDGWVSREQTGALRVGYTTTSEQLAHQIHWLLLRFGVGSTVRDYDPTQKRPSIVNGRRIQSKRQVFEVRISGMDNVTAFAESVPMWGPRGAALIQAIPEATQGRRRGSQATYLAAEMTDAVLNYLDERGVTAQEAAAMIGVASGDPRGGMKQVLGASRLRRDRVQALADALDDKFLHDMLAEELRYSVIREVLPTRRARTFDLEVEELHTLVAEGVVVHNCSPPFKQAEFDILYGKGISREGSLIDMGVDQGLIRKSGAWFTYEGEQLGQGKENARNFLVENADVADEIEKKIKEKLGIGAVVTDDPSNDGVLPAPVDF
Arbovirus anti repeat – further read-out of Arbovirus anti, marked with its call; inhibition, %; measured here: 10K subset replicate screen; many hits read low in the repeat;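 first of two repeat runs on a subset; 0% = infected and 100% = uninfected wells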
* hit, by the source's call; ? = inconclusive; . = not tested or not shown; & = joins results of further samples. Not all compounds are listed; the hit share may differ from the screen's.

SMILES	Mtb H37Rv	YopH inh	Arbovirus anti	Mtb bLac sens	RecA intein inh	others
Cc1c(Cl)c([N+](=O)[O-])nn1Cc1ccc(C(=O)Nc2ccc(Cl)cn2)o1	28%	-2	-24	97	-0.4
COc1ccc2c(c1)c(CC(=O)Nc1ccc(C)cc1)c(C)n2C(=O)c1ccc(Cl)cc1	6%	0	-8	79	0.7
O=C(Nc1nccs1)NC1CCCCC1	-7%	-36	-2	-12	0.3
O=C(NCc1ccc(F)cc1)C(c1ccccc1)N(CC1CCCO1)C(=O)Cn1nnc2ccccc21 (centres undefined)	-4%	8	4	0	1.7
CN(c1ccc(F)cc1)S(=O)(=O)c1ccc(Cl)c(C(=O)Nc2ccncc2)c1	.	.	.	3	-1.1
O=C1CCCCCN1Cc1nnc(SCc2nc3ccccc3s2)n1-c1ccccn1	-9%	-26	9	0	2.9	Arbovirus anti repeat=7
CCC(COC(=O)Nc1cccc(C)c1C)NC(=O)OCC(C)C (centres undefined)	-6%	-15	-4	4	-1.7
CC(=O)OCC(=O)Nc1ccccc1C	-5%	.	1	12	0.2
S=C(NCC1CCCO1)Nc1ccc(Cl)c(Cl)c1 (centres undefined)	6%	.	11	5	16
O=C(NCc1ccc(F)cc1)C(c1ccco1)N(C(=O)c1csnn1)c1ccccc1 (centres undefined)	.	.	.	9	0.0
CCOC(=O)c1sc(NC(=O)CCN2CCCCCC2)c(C(=O)OCC)c1C	5%	.	-23	3	3.1
Cc1ccsc1CNS(=O)(=O)c1ccc(F)cc1	.	.	.	-3	1.0
Cc1ccc(Cl)cc1NC(=S)NN	-4%	.	.	100	-2.5
c1ccc2c(c1)cnc1ccccc12	9%	.	.	-4&-2	1.4&0.6
O=C(c1ccc(Cn2c(=O)[nH]c3ccccc3c2=O)cc1)N1CCN(c2ccc(F)cc2)CC1	0%	-28	-9	?	0.0
CCO[C@@H]1OC(C(=O)N2CCN(Cc3ccccc3)CC2)=C[C@H](c2csc3ccccc23)[C@H]1CCCO	7%	.	-13	9	11
Cc1nc(SCc2ccccc2)c2oc3ccccc3c2n1	?	.	.	79	0.8
COc1cccc(NC(=O)COC(=O)c2nc(Cl)ccc2Cl)c1	3%	.	3	-7	2.6
COc1cccc(CN(C)CC2CCCN(CCc3ccccc3C)C2)c1 (centres undefined)	.	.	.	0	1.1
O=S(=O)(c1cnc(Cl)c(Br)c1)N1CCN(c2ncccn2)CC1	-11%	.	.	-5	0.0
O=C(c1ccc2c3n(nc2c1)-c1ccccc1CO3)N1CCOCC1	-19%	.	.	2	-1.0
COc1ccc(-n2nc(C)c3sc(C)nc3c2=O)cc1	-11%	.	.	-4	0.7
O=C(NCc1ccccc1)C(c1ccco1)N(C(=O)c1ccccn1)c1ccc(F)cc1 (centres undefined)	3%	.	1	2	-3.4
COc1ccc(C(C(=O)NC2CCCC2)N(C(=O)c2ccoc2C)c2ccc(C)c(C)c2)cc1 (centres undefined)	9%	7	-4	-12	2.6
OC(CN1CCOCC1)C12CC3CC(CC(C3)C1)C2 (centres undefined)	3%	-55	-4	8	-3.4
Cc1ccc(C(=O)N/C(=C\c2ccco2)C(=O)NCCCN2CCOCC2)cc1C	.	.	.	-7	-5.4
O=C(CSc1nnc(Cc2ccccc2)o1)Nc1ccc2c(c1)OCO2	42%	-20	-5	22	0.2
CCc1nnc(NC(=O)c2sc3nc4c(cc3c2N)CCCCC4)s1	29%	-7	-10	91	-5.8
Cc1nn(-c2ccccc2)c2sc(C(=O)N3CCOCC3)cc12	-1%	20	-9	-6	5.7
O=C(NCCO)/C(=C\c1ccco1)NC(=O)c1ccco1	.	.	.	2	-3.4
CC[C@@H](C)[C@@H](C(=O)N1CCN(C(=O)OC(C)(C)C)CC1)n1cc(CCC(=O)O)nn1	7%	.	.	2	-0.9
Cc1cc(NC(=O)c2ccc(-c3ccccc3F)o2)no1	9%	.	3	6	2.7
COCCCn1c(=O)c2sccc2n(Cc2ccccc2C)c1=O	.	.	.	-14	2.8
Cn1c(-c2ccc(F)cc2)cnc1SCC(=O)Nc1ccccc1N1CCOCC1	4%	-28	-7	-2	-1.6
COc1cccc(NC(=O)C2CCC(CNS(=O)(=O)c3cccc4cccnc34)CC2)c1 (centres undefined)	.	.	.	0	0.5
Cc1ccc(C)c(OCC(=O)Nc2ccc3c(c2)OCO3)c1C	-6%	-24	-17	1	5.6
CC1CCCCC1NC(=O)CN1C(=O)COc2ccccc21 (centres undefined)	.	.	.	-6	-4.7
N#CCCN(C(=O)CSc1nc(-c2ccccc2)cn1N)c1ccc(F)cc1	-11%	-27	2	-8	2.8
COC(=O)Nc1nc2c(C)cccc2s1	-6%	-5	3	-3	0.4
Cc1[nH]n(-c2ccccc2)c(=O)c1/C=N\NC(=O)C1COc2ccccc2O1 (centres undefined)	3%	-36	-20	55	38*
CCNc1ccc(C(=O)NN=C2CCCC2)cc1[N+](=O)[O-]	-7%	.	-14	45	0.9
CCC(C(=O)OC)(C(=O)OC)c1ccc([N+](=O)[O-])cc1	-1%	.	8	1	-4.9
S=c1[nH]nc(-c2ccc3ccccc3n2)n1-c1ccc2c(c1)OCCO2	9%	.	.	-8	-2.4
CCOC(=O)C1CCN(C(=O)c2ccc3c(SCC(=O)O)c4c(nc3c2)CCCC4)CC1	0%	.	4	3	7.1
CCOC(=O)N1CCN(S(=O)(=O)c2ccc(C)cc2)CC1	.	.	.	-6	0.2
COc1ccc2c(C)cc(SCC(=O)Nc3ccc(Cl)cn3)nc2c1	-2%	-5	-9	-4	3.4
Cc1ccc(-c2n[nH]c(=S)n2-c2ccccc2)cc1	-8%	-28	0	2	1.4
O=C(NC1CCCc2c1cnn2-c1cc(F)cc(F)c1)c1ccccn1 (centres undefined)	.	.	.	4	1.9
COc1ccc(OC)c(NC(=O)CSc2nc3c(c(=O)n(C)c(=O)n3C)n2C)c1	-5%	-21	-7	4	1.2
COC(=O)c1cccc(NC(=O)CCNC(=O)c2ccco2)c1	.	.	.	-6	0.7

(more compounds)
SMILES	Mtb H37Rv	YopH inh	Arbovirus anti	Mtb bLac sens	RecA intein inh	others
Cc1ccc(SCc2nnc(N)s2)cc1	4%	-33	2	2	-0.7
CS(=O)(=O)Nc1ccc(-c2cc(/C=C3\SC(N)=NC3=O)c[nH]c2=O)cc1	.	.	.	-7	2.0
CC(NC(=O)COc1cccnc1[N+](=O)[O-])c1ccc(F)cc1 (centres undefined)	.	.	.	-4	-4.8
CCn1nnnc1NCc1cccn1C	-10%	-20	-1	3	.
Cc1cccc2[nH]c(SCC(=O)N3CCOCC3)nc12	-4%	.	-2	-2	-1.4
COc1ccc(CCNC(=O)C(=O)NCC2OCCN2S(=O)(=O)c2ccc(OC)cc2)cc1 (centres undefined)	.	.	.	-2	-7.3
CC(=O)c1ccccc1NC(=O)COC(=O)c1ccccc1NC(=O)c1ccccc1	10%	-31	-4	2	.
CC(C)(C)S(=O)(=O)c1cnc2c(-c3ccc(Cl)cc3)cnn2c1N	-5%	-32	-3	-4	-1.1
CCN1CCN(C(c2ccc(OC)c(OC)c2)c2nnnn2C(C)(C)C)CC1 (centres undefined)	0%	-28	6	.	4.1
CCCCSc1nc(N)c(NC(=O)c2ccco2)c(=O)[nH]1	-2%	-17	-2	-3	6.2	Arbovirus anti repeat=-3
CC(=O)c1ccc(S(=O)(=O)Nc2ccc(N3CCOCC3)cc2)cc1	.	.	.	-2	-4.1
CCc1cccc(CC)c1NC(=O)c1ccccc1	-5%	.	-2	4	0.1
O=C(NCC1CCCO1)c1ccc(CS(=O)(=O)Cc2ccc(F)cc2)o1 (centres undefined)	-16%	-18	9	-6	-2.9
COc1ccc(NC(=O)COC(=O)CCCN2C(=O)c3ccccc3C2=O)cc1Cl	-4%	-22	1	3	-2.4
COC(C(=O)N/N=C(\C)CC(=O)Nc1ccc(Cl)cc1C)c1ccccc1 (centres undefined)	-8%	.	2	0	0.1
CCc1c(C)sc(NC(=O)c2ccco2)c1C(=O)N1CCOCC1	-5%	-21	6	-2	9.0
CC1CCCCC1NC(=O)Cn1c(CN2CCCCC2)nc2ccccc2c1=O (centres undefined)	-12%	4	-4	7	-0.4
Cc1ccc(NC(=O)CSc2nnc(CCC(=O)O)c(=O)[nH]2)cc1	16%	.	.	25	1.7
CCOc1ccc(CCNC(=O)C2CC(=O)N(Cc3ccc(C)cc3)C2)cc1OCC (centres undefined)	.	.	.	-11	-1.6
CC(=O)Nc1ccc(NC(=O)COc2cc(C)cc3oc(=O)cc(C)c23)cc1	.	.	.	1	-0.1

Entries listed so far that have a COOH group:
SMILES	Mtb H37Rv	YopH inh	Arbovirus anti	Mtb bLac sens	RecA intein inh	others
CC[C@@H](C)[C@@H](C(=O)N1CCN(C(=O)OC(C)(C)C)CC1)n1cc(CCC(=O)O)nn1	7%	.	.	2	-0.9
CCOC(=O)C1CCN(C(=O)c2ccc3c(SCC(=O)O)c4c(nc3c2)CCCC4)CC1	0%	.	4	3	7.1
Cc1ccc(NC(=O)CSc2nnc(CCC(=O)O)c(=O)[nH]2)cc1	16%	.	.	25	1.7

(more compounds)
SMILES	Mtb H37Rv	YopH inh	Arbovirus anti	Mtb bLac sens	RecA intein inh	others
COc1ccc(C2C(CC(=O)O)=C(Nc3ccccc3)C(=O)N2c2ccccc2)cc1 (centres undefined)	11%	.	-4	-1	-1.5
CC(C)(C)c1nnc(N/N=C/c2ccccc2)n(N)c1=O	5%	-20	2	2	-2.0
CNS(=O)(=O)c1ccc2c(c1)NC(=O)C1CCCN21 (centres undefined)	-2%	44	-7	-6	-122
Cc1ccccc1OCC(=O)Nc1cccc(S(=O)(=O)NC2=NCCCCC2)c1	.	.	.	-9	-1.3
CCCC(=O)Oc1ccccc1C1SCc2cc(C)c(C)cc2CS1	.	-31	32*	1	3.5
CC(C(=O)Nc1ccc(O)cc1)c1cccc(C(=O)c2ccccc2)c1 (centres undefined)	-8%	.	-17	-2	2.2
O=c1cc(C(O)C[N+](=O)[O-])occ1OCc1ccccc1 (centres undefined)	.	.	.	2	1.9
CCOC(=O)c1sc2nc(C)n(CC(=O)NCC3CCCO3)c(=O)c2c1C (centres undefined)	-10%	-12	3	-5	-0.1
O=C1CCCC2=C1C(c1ccncc1)c1c(nc(SCc3ccccc3Cl)[nH]c1=O)N2 (centres undefined)	11%	2	7	30	.
Cc1cc(N2CCOCC2)c2c(N)cc(C)c(C)c2n1	3%	-8	17	-12	-1.8

Structures listed so far that have a tert-butyl group:
SMILES	Mtb H37Rv	YopH inh	Arbovirus anti	Mtb bLac sens	RecA intein inh	others
CC[C@@H](C)[C@@H](C(=O)N1CCN(C(=O)OC(C)(C)C)CC1)n1cc(CCC(=O)O)nn1	7%	.	.	2	-0.9
CC(C)(C)S(=O)(=O)c1cnc2c(-c3ccc(Cl)cc3)cnn2c1N	-5%	-32	-3	-4	-1.1
CCN1CCN(C(c2ccc(OC)c(OC)c2)c2nnnn2C(C)(C)C)CC1 (centres undefined)	0%	-28	6	.	4.1
CC(C)(C)c1nnc(N/N=C/c2ccccc2)n(N)c1=O	5%	-20	2	2	-2.0

More entries
SMILES	Mtb H37Rv	YopH inh	Arbovirus anti	Mtb bLac sens	RecA intein inh	others
CCOC(=O)/C(C#N)=C\c1ccc(O)c(OC)c1	0%	.	1	-3	40*
Cc1noc(C)c1COC(=O)C1(c2cccc(F)c2)CCCC1	6%	-12	2	-4	3.7
O=C1C(Cl)=C(N2CCCCC2)C(=O)N1Cc1ccccc1	5%	-7	-3	3	0.2
CNC(=S)N1CCN(c2ccc(OC)cc2)CC1	-2%	-23	5	-4	0.9
CCOc1ccccc1NC(=O)CSc1ccc([N+](=O)[O-])cc1	52%	.	-7	90	0.7
CCCc1nn(C)c(C(=O)Nc2ccccc2)c1Cl	1%	-20	12	1	-3.5
CCCN(CCC)C(=O)c1cc(S(=O)(=O)N2CCCCC2)c[nH]1	.	.	.	-1	0.6
CCN(CC)c1nc2ccccc2[nH]c1=O	-5%	.	.	5	3.5
O=C(CCn1c(=O)c2ccccc2n(Cc2cccnc2)c1=O)NCc1ccc2c(c1)OCO2	5%	-54	-11	-1	0.5
COc1ccc(C2NC(=O)c3ccccc3N2)cc1 (centres undefined)	.	.	.	-8	-5.7
COc1ccccc1NC(=O)c1nn(-c2cccc(C(F)(F)F)c2)ccc1=O	7%	-30	-3	-4	-1.4
N#CC1=C(N)Oc2ccccc2C12C(=O)Nc1n[nH]c(-c3ccccc3)c12 (centres undefined)	1%	-13	-8	-4	28
COC(=O)COc1ccc2c(=O)c(Oc3ccccc3Br)coc2c1	.	.	.	99	0.5
CC(C)CC(NS(=O)(=O)c1ccccc1S(=O)(=O)NC(CC(C)C)C(=O)O)C(=O)O (centres undefined)	.	.	.	-3	0.6
CC(C(=O)c1c[nH]c2ccccc12)N1CCN(C(=O)c2ccco2)CC1 (centres undefined)	-11%	.	.	-5	.
COC(=O)c1ccccc1NC(=O)CN(c1ccccc1)S(=O)(=O)N(C)C	-4%	-1	-2	1	-0.1
S=C(Nc1ccc(Br)cc1)NC1CCCC1	8%	-18	28	6	4.7

From PubChem BioAssay
